# PAD4 FP inh: PAD4 (human) enzyme inhibition. Q9UM07. recombinant PAD4, RCA probe fluorescence polarization. inhibition, % at 6.36 µM. 330,000 tested, 0.41% active. AID 485272;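 active = percent inhibition above a cutoff equal to the mean of all tested compounds plus 3 SD, cut at about 15% in these data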;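 also: 0% = PAD4 with RCA probe and DMSO and 100% = probe without PAD4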
# LYPLA1 inh: LYPLA1 (human) inhibition in PME1 counter-screen. AID 2174. 320,000 tested, 0.16% active. inhibition, % at 5.9 µM. recombinant LYPLA1, FP-Rh probe fluorescence polarization;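 active = inhibition above the mean of all tested compounds plus 3 SD, set per campaign, cut at about 14% in these data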;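 also: inhibitors block serine hydrolase probe labeling of LYPLA1 so polarization falls; 0% = enzyme with DMSO and 100% = wells lacking LYPLA1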
# pPAFAH inh: inhibitors of human plasma PAF acetylhydrolase (pPAFAH); 330,000 tested, 1.5% active; inhibition, % at 3.39 µM; AID 463082; recombinant pPAFAH, FP-rhodamine probe fluorescence polarization;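 active = inhibition above the mean inhibition across the screen plus 3 SD, cut at about 25% in these data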;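 also: inhibitors block binding of the rhodamine activity-based probe so polarization drops; 0% = enzyme with DMSO and 100% = wells lacking pPAFAH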
# PAFAH1B2 FP inh: PAFAH1B2 (human) inhibition; P68402; recombinant PAFAH1B2, FP-rhodamine activity probe, fluorescence polarization; inhibition, % at 3.39 µM; 340,000 tested, 1.2% active; AID 492953;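 active = inhibition above the mean of all tested compounds plus 3 SD, cut at about 24% in these data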;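 also: 0% = enzyme with DMSO and 100% = wells lacking PAFAH1B2; many of its hits are not listed in these tables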
# PAFAH1B3 FP inh: inhibitors of human PAFAH1B3; recombinant PAFAH1B3, FP-rhodamine probe, fluorescence polarization; inhibition, % at 3.39 µM; 340,000 tested, 0.28% active; AID 492972;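 active = inhibition above the screen-wide average of all tested compounds plus 3 SD, cut at about 25% in these data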;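 also: 0% = enzyme with DMSO only and 100% = wells lacking PAFAH1B3 protein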
# PAFAH2 inh: PAFAH2 (human) inhibition; 340,000 tested, 0.99% active; inhibition, % at 3.39 µM; recombinant PAFAH2, FP-rhodamine activity probe, fluorescence polarization; Q99487;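 active = inhibition above the mean over all tested compounds plus 3 SD, cut at about 30% in these data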;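 also: inhibitors block probe labeling of enzyme so polarization drops; 0% = enzyme with DMSO and 100% = wells lacking PAFAH2 protein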
# LYPLA2 counter: LYPLA2 (human) inhibition in PME1 counter-screen; recombinant LYPLA2, FP-Rh probe fluorescence polarization; inhibition, % at 5.9 µM; 320,000 tested, 0.38% active; AID 2177;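 active = inhibition above the screen-wide mean plus 3 SD, limit set per campaign, cut at about 26% in these data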;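 also: 0% = LYPLA2 with DMSO and 100% = wells lacking LYPLA2 enzyme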
# Target sequence (O95372 whole entry, looked up): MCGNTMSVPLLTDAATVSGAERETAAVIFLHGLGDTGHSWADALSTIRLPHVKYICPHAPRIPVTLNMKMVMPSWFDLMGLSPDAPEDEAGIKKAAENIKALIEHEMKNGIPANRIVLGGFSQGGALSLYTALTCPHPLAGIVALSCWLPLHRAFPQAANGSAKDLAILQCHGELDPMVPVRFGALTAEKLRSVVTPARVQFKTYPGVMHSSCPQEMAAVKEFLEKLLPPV
# PREPL inh: human PREPL enzyme inhibition | Q4J6C6 | recombinant PREPL, fluorescence polarization activity-based probe | inhibition, % at 5.96 µM | 320,000 tested, 0.68% active; in the data active = inhibition above about 43%;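 also: 0% = enzyme with DMSO and 100% = wells lacking enzyme; many of its hits are not listed in these tables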
# Target sequence (Q4J6C6 whole entry, looked up): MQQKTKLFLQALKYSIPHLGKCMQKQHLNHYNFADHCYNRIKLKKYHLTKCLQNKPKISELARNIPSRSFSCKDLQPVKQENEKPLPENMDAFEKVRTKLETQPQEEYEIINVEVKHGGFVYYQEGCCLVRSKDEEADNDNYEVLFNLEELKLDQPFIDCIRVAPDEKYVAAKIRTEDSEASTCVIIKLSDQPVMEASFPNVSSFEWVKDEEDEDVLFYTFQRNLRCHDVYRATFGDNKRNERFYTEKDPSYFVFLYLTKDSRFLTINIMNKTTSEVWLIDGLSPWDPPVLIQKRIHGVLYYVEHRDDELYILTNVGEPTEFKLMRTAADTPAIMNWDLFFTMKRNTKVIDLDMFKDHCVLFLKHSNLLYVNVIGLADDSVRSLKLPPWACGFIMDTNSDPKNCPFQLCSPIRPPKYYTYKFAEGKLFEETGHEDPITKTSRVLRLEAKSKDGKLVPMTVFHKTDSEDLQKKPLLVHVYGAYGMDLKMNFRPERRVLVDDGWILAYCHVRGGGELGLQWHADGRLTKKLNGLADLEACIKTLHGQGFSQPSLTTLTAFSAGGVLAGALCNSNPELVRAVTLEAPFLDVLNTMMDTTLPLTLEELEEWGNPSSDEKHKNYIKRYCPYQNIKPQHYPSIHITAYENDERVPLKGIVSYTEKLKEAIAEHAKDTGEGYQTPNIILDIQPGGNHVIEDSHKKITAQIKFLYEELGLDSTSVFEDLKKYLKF
# Active calls of the source: *; . = not tested or not shown. Only part of the results is shown; count on the stated rates, not on these rows.
SMILES,PAD4 FP inh,LYPLA1 inh,pPAFAH inh,PAFAH1B2 FP inh,PAFAH1B3 FP inh,PAFAH2 inh,LYPLA2 counter,PREPL inh
CC(C)N(c1ccccc1)c1ccc(NC(=O)CCl)cc1,6,5,3,7,4,9,23,17
O=C(COC(=O)c1ccco1)c1ccc(S(=O)(=O)N2CCCCC2)cc1,-1,-3,7,1,8,2,15,-3
CC(NC(=O)c1cc(COc2cccc(C(F)(F)F)c2)on1)c1nccs1 (stereo not given),-1,-1,1,3,-7,0,1,-2
Cc1cccc(CCNS(=O)(=O)c2ccc3c(c2)NC(=O)CS3)c1,-3,-5,6,5,2,-2,-1,-17
CCn1c(SCc2nc(-c3cccs3)no2)nnc1-c1c[nH]c2ccccc12,-3,-1,5,6,2,3,-1,6
Cn1c(=O)c(C(=O)CCl)c(N)n(Cc2ccccc2)c1=O,-7,-4,-5,0,6,0,3,0
CCc1nnc(NC(=O)CSc2nc(C3CCCCC3)nc3ccccc23)s1,0,0,3,1,8,6,2,-6
COC(=O)c1c(NC(=O)CCl)sc(C(=O)N2CCOCC2)c1C,5,-1,2,2,11,-4,-4,5
O=C(CCl)Nc1ccc2c(c1)OCO2,0,3,3,8,6,-2,6,7
CCOC(=O)c1c(C)n(S(=O)(=O)c2ccc(C)cc2)c2ccc(O)c(C(=O)O)c12,-1,-3,5,3,4,17,-7,-16
COc1ccc(NS(=O)(=O)c2ccc3c(c2)NC(=O)CCS3)cc1Cl,-7,-1,7,0,11,12,2,8
CCOCC(=O)Nc1nc2ccc(C)cc2s1,-4,-1,4,-2,4,-9,6,-11
O=C(Nc1nccs1)c1cn2ccccc2n1,0,-2,-1,4,8,5,7,13
CCc1nnc(NC(=O)CSc2nc(C)nc3c2c(=O)n(C)c(=O)n3C)s1,-1,-4,2,4,0,6,7,-4
CSCCC(C(=O)OCC(=O)c1ccc(C)c(C)c1)N1C(=O)c2cc(Cl)c(Cl)cc2C1=O (stereo not given),-5,1,0,3,-1,16,0,-2
CCc1nnc(NC(=O)CSc2ccc(-c3ccc(-n4cccn4)cc3)nn2)s1,-3,0,-2,-4,0,8,-9,-4
Cc1nc(NC(=O)CCl)sc1C(=O)N(C)C,0,1,6,-3,1,1,-2,4
N#CCCN(CC(=O)O)S(=O)(=O)c1ccccc1,-3,4,0,1,-1,-35,2,12
O=C(COC(=O)CCC1CCCC1)Nc1cccc(S(=O)(=O)N2CCOCC2)c1,-2,-4,25*,-2,-2,15,-2,15
CCCc1cc(=O)n(-c2nc3ccccc3s2)[nH]1,-2,-2,3,1,2,25,0,11

# Four entries out of the list above, ordered by the value under PAFAH2 inh, ascending.
SMILES | PAD4 FP inh | pPAFAH inh | PAFAH1B2 FP inh | PAFAH1B3 FP inh | PAFAH2 inh | PREPL inh
O=C(CCl)Nc1ccc2c(c1)OCO2 | 0 | 3 | 8 | 6 | -2 | 7
CC(NC(=O)c1cc(COc2cccc(C(F)(F)F)c2)on1)c1nccs1 (stereo not given) | -1 | 1 | 3 | -7 | 0 | -2
O=C(COC(=O)c1ccco1)c1ccc(S(=O)(=O)N2CCCCC2)cc1 | -1 | 7 | 1 | 8 | 2 | -3
CCn1c(SCc2nc(-c3cccs3)no2)nnc1-c1c[nH]c2ccccc12 | -3 | 5 | 6 | 2 | 3 | 6

# Additional records follow:
SMILES,PAD4 FP inh,LYPLA1 inh,pPAFAH inh,PAFAH1B2 FP inh,PAFAH1B3 FP inh,PAFAH2 inh,LYPLA2 counter,PREPL inh
O=[N+]([O-])c1cc(Br)c2nsnc2c1N1CCOCC1,-9,5,0,11,7,5,6,9
Cc1nnc(NC(=O)CSc2nc(C3CCCCC3)nc3ccccc23)s1,-2,2,2,1,3,6,8,19
Cn1c2ccccc2c2cc(C(=O)NNC(=O)CCl)sc21,-4,-2,5,1,4,7,-5,14
Cc1ccc(C(=O)OCC(=O)NN2C(=O)NC3(CCC(C)CC3)C2=O)cc1 (stereo not given),1,2,15,-3,1,74*,4,4
Cc1ccc(NS(=O)(=O)c2ccc3c(c2)NC(=O)CCS3)cc1C,-1,-1,16,8,9,2,-8,3
Cc1cc(C)nc(N2N=C(C(C)(C)C)CC2=O)n1,1,2,-1,-1,-2,5,2,11
Nc1nc(CCl)nc(Nc2cccc3ccccc23)n1,9,-4,-9,.,.,.,-4,10
COc1cc(/C=C/C(=O)O)cc(S(=O)(=O)Nc2ccc3c(c2)CCC3)c1OC,3,-6,2,0,3,2,6,2
Cc1ccnc(SCC(=O)Nc2sccc2C#N)n1,0,5,7,1,0,6,4,13
CCOC(=O)C1CCN(C(=O)CCc2ccc(S(=O)(=O)NC(C)C)cc2)CC1,-8,-5,5,1,9,3,0,4
CCOC(=O)c1c(NC(=O)c2cccc(N3C(=O)CCC3=O)c2)sc(C)c1C,-3,-4,-3,-2,-2,6,6,19
CC1(C(=O)OCC(=O)Nc2cccc(S(=O)(=O)NC3=NCCCCC3)c2)CC1(Cl)Cl (stereo not given),-6,-2,0,0,7,8,0,10
COc1cc2c(cc1OC)C(C)N(S(=O)(=O)c1ccc(Cl)nc1)CC2 (stereo not given),-3,-1,2,0,14,1,0,-3
O=C1NCCCC2c3c(cc(Br)c(O)c3Br)OC12N1CCCCC1 (stereo not given),-1,1,11,5,4,1,3,0
CC(C)Nc1nc(Cl)nc(N(C#N)CN2C(=O)c3ccccc3C2=O)n1,5,-1,1,4,1,15,3,1
O=[N+]([O-])C(=C1Nc2ccccc2N1)C(Cl)=C(Cl)Cl,3,4,5,-2,15,10,2,6
COc1ccc(-c2nc(CNS(=O)(=O)c3ccc(OC)c(OC)c3)cs2)cc1,4,5,2,1,-1,7,6,-5
O=C(CSc1nnnn1-c1ccccc1)CSc1nnnn1-c1ccccc1,-4,1,16,4,5,-3,-3,9
Cc1nc2sc3c(c2c(=O)n1NC(=O)CCl)CCCC3,3,0,4,6,19,16,2,13
O=C(COC(=O)/C=C/C(=O)OCC(=O)NC12CC3CC(CC(C3)C1)C2)NC12CC3CC(CC(C3)C1)C2,0,3,-1,7,7,15,1,-4
Cc1cccc(CCNS(=O)(=O)c2ccc3c(c2)NC(=O)C(C)S3)c1 (stereo not given),0,-1,8,0,-3,-9,5,-25
COc1cccc(OCC(=O)NNC(=O)c2ccc(-c3ccccc3)cc2)c1,-6,-2,-5,0,-3,-7,-4,-7
Cc1nc(SCN2C(=O)c3ccccc3C2=O)n[nH]1,2,-2,3,3,-2,-8,1,2
COc1ccccc1CCn1c(N)c(C#N)c2nc3ccccc3nc21,-12,1,0,-4,3,-1,-3,13
COC(=O)c1ccccc1NC(=O)CSc1nc2c(c(=O)[nH]1)CCC2,1,-2,5,1,6,6,-1,-4
Cc1cc(=O)[nH]c(SCC(=O)Nc2nnc(SCc3ccccc3)s2)n1,-4,-3,4,9,15,13,0,-2
CS(=O)(=O)N1CCc2cc(C(=O)OCC(=O)c3ccccc3)ccc21,1,2,7,7,6,15,7,-3
Cc1ccccc1Nc1nc(Cl)c(C=O)s1,-2,3,-2,-1,3,-10,2,12
O=C(Nc1ccnn1C1CCN(C/C=C/c2ccccc2)CC1)c1ccccc1,-4,3,1,3,9,3,2,-48
CCCCc1nnc(NC(=O)CSc2nc(O)c(-c3ccccc3)c(=O)[nH]2)s1,-1,-2,1,4,3,-6,-3,-4
COc1ccc(OCc2nc(N)nc(Nc3ccccc3OC)n2)cc1,3,-2,1,2,6,5,1,4
Nc1cc(=O)[nH]c(SCC(=O)Nc2cc(Cl)cc(Cl)c2)n1,-3,-1,3,-1,10,-9,-5,-73
CCN(CC)c1ccc2oc(=O)c(C)nc2c1,-6,-4,7,-1,1,-19,-6,4
O=C1CNC(=S)N1c1nc(-c2ccccc2)cs1,-6,3,6,14,4,7,-1,-3
Cc1ccc(C(=O)CSc2nnc(-c3ccco3)n2Cc2ccccc2)cc1,0,-4,2,5,9,-2,1,-16
NC(=O)NC(=O)Nc1ccccc1Cl,-5,-4,-1,0,2,7,0,0
Nc1cc(=O)[nH]c(SCC(=O)Nc2cc([N+](=O)[O-])ccc2Cl)n1,-7,0,-1,5,-2,5,2,26
O=S(=O)(c1cnc(Cl)c(Cl)c1)N1CCc2ccccc21,-4,1,7,3,4,-2,7,8
CC(C)[C@H](Nc1ccc(S(=O)(=O)N2CCOCC2)cc1[N+](=O)[O-])C(=O)OCC(=O)N(C(C)C)C(C)C,3,-2,1,-2,2,10,-1,-6
O=C(CCl)NN1C(=O)NC2(CCCCC2)C1=O,-1,2,3,-3,5,7,-1,-1
O=C(CN1CCSc2ccccc21)NCCCc1ccccc1,1,2,4,3,5,-6,3,4
CCOc1cc(NC(=O)CCl)c(OCC)cc1NC(C)=O,-2,-2,1,4,3,-1,-1,-7
Cc1ccc(Nc2nc(N)nc(CSc3nncn3C)n2)cc1,1,1,-1,1,-3,4,4,1

# An excerpt of these results, with values under each structure:
# Every second line gives: PAD4 FP inh | LYPLA1 inh | pPAFAH inh | PAFAH1B2 FP inh | PAFAH1B3 FP inh | PAFAH2 inh | LYPLA2 counter | PREPL inh
Nc1cc(=O)[nH]c(SCC(=O)Nc2cc([N+](=O)[O-])ccc2Cl)n1
  -7 | 0 | -1 | 5 | -2 | 5 | 2 | 26
O=S(=O)(c1cnc(Cl)c(Cl)c1)N1CCc2ccccc21
  -4 | 1 | 7 | 3 | 4 | -2 | 7 | 8

# Seven entries from above in another layout:
structure | PAD4 FP inh | LYPLA1 inh | pPAFAH inh | PAFAH1B2 FP inh | PAFAH1B3 FP inh | PAFAH2 inh | LYPLA2 counter | PREPL inh
Cn1c2ccccc2c2cc(C(=O)NNC(=O)CCl)sc21 | -4 | -2 | 5 | 1 | 4 | 7 | -5 | 14
Cc1ccc(C(=O)OCC(=O)NN2C(=O)NC3(CCC(C)CC3)C2=O)cc1 (stereo not given) | 1 | 2 | 15 | -3 | 1 | 74* | 4 | 4
Cc1ccc(NS(=O)(=O)c2ccc3c(c2)NC(=O)CCS3)cc1C | -1 | -1 | 16 | 8 | 9 | 2 | -8 | 3
Cc1cc(C)nc(N2N=C(C(C)(C)C)CC2=O)n1 | 1 | 2 | -1 | -1 | -2 | 5 | 2 | 11
Nc1nc(CCl)nc(Nc2cccc3ccccc23)n1 | 9 | -4 | -9 | . | . | . | -4 | 10
COc1cc(/C=C/C(=O)O)cc(S(=O)(=O)Nc2ccc3c(c2)CCC3)c1OC | 3 | -6 | 2 | 0 | 3 | 2 | 6 | 2
Cc1ccnc(SCC(=O)Nc2sccc2C#N)n1 | 0 | 5 | 7 | 1 | 0 | 6 | 4 | 13

# From PubChem BioAssay
